HIV Env fusion: inhibitors of HIV Env-mediated cell fusion | HeLa-JRFL Env/CEM21 cell fusion, luciferase | inhibition, % at 12.3 µM | hit rate 1.1% among 360,000;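 active = mean replicate inhibition score of at least 50 and every replicate individually at or above 50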;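 note: 0% = plate neutral controls and 100% = maraviroc near 300 nM; one replicate is shown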
Yeast UUG start: modulators of start codon recognition fidelity in yeast; S. cerevisiae UUG-firefly luciferase reporter, luminescence/redox ratio; activity score, % at 18.7 µM; hit rate 0.13% among 350,000;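 active = replicate mean at a twofold rise or more, about +100% in these data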;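 note: firefly luciferase made from a UUG start codon reports start codon fidelity; reporter light over untreated wells divided by growth signal over untreated wells; some hits fall short of that in this replicate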
An asterisk follows results filed as active; [ ] = dose if it differs, or a comment. A portion of the library, so the mix of outcomes need not match the whole.

`COc1cccc(NC(=O)N(C)C[C@H]2Oc3cc(C#Cc4ccncc4)ccc3S(=O)(=O)N([C@@H](C)CO)C[C@H]2C)c1` gave HIV Env fusion -59.6[16.7 µM] and Yeast UUG start 16.0.
`C[C@@H]1CN([C@H](C)CO)C(=O)c2cc(NC(=O)C3CCCCC3)ccc2O[C@@H](C)CCCCO[C@@H]1CN(C)C(=O)CCCN(C)C` gave HIV Env fusion -14.1[16.7 µM] and Yeast UUG start 22.1.
`COc1ccccc1-c1ccc([C@H]2[C@@H](C#N)N(C(=O)C3CC3)[C@@H]2CO)cc1` gave HIV Env fusion -18.9[16.7 µM] and Yeast UUG start 31.5.
`CNC(=O)C[C@@H]1CC[C@@H]2[C@H](COc3ccc(NC(=O)c4cccs4)cc3C(=O)N2C)O1` gave HIV Env fusion 0.7[16.7 µM] and Yeast UUG start 11.4.
Screening O=C(C[C@@H]1C=C[C@@H](NC(=O)C2CCC2)[C@H](CO)O1)Nc1nccs1 returned HIV Env fusion -2.8[16.7 µM] and Yeast UUG start 1.0.
For COc1ccc(CN(C)C[C@@H]2Oc3c(NS(=O)(=O)c4ccc(OC)cc4)cccc3C(=O)N([C@H](C)CO)C[C@@H]2C)cc1 the results were HIV Env fusion 3.7[16.7 µM] and Yeast UUG start 8.8.
Screening O=C(C[C@@H]1CC[C@H]2[C@@H](COC[C@H](O)CN2C(=O)Nc2ccccc2)O1)NCc1ccncn1 returned HIV Env fusion -9.0[16.7 µM] and Yeast UUG start 5.0.
Screening O=S(=O)(NCC[C@H]1CC[C@H](NS(=O)(=O)c2ccccc2Cl)[C@@H](CO)O1)c1ccc(F)cc1 returned HIV Env fusion 13.6[16.7 µM] and Yeast UUG start 8.0.
`C[C@@H]1CCCCO[C@H](CN(C)CC2CC2)[C@@H](C)CN([C@H](C)CO)C(=O)c2cc(NS(=O)(=O)c3ccc(Cl)cc3)ccc2O1` gave HIV Env fusion 18.5[16.7 µM] and Yeast UUG start -7.7.
Screening C[C@H](CO)N1C[C@H](C)[C@H](CN(C)S(C)(=O)=O)Oc2ncc(C#CC(C)(C)O)cc2C1=O returned HIV Env fusion -4.3[16.7 µM] and Yeast UUG start -1.4.
For CCNC(=O)C[C@@H]1CC[C@H]2[C@H](COc3ccc(NC(=O)Nc4ccc(Cl)cc4)cc3C(=O)N2C)O1 the results were HIV Env fusion 24.5[16.7 µM] and Yeast UUG start 9.0.
Screening CC(C)CC#Cc1ccc2c(c1)O[C@H](CN(C)C(=O)c1ccccn1)[C@H](C)CN([C@@H](C)CO)S2(=O)=O returned HIV Env fusion 5.8[16.7 µM] and Yeast UUG start 1.1.
`C[C@H](CO)N1C[C@H](C)[C@H](CN(C)C(=O)CCCN(C)C)OCCCC[C@H](C)Oc2ccc(NS(=O)(=O)c3ccc(Cl)cc3)cc2C1=O` gave HIV Env fusion 0.8[16.7 µM] and Yeast UUG start 15.0.
Screening Cc1ccc(S(=O)(=O)N(C)C[C@H]2Oc3ccc(NC(=O)Nc4ccc5c(c4)OCO5)cc3CC(=O)N([C@@H](C)CO)C[C@H]2C)cc1 returned HIV Env fusion -2.1[16.7 µM] and Yeast UUG start -5.3.
Screening CCCc1cn(CC[C@H]2CC[C@@H](NC(=O)C3CCC3)[C@H](CO)O2)nn1 returned HIV Env fusion 10.2[16.7 µM] and Yeast UUG start -6.6.
`Cc1ccc(S(=O)(=O)Nc2ccc3c(c2)C(=O)N([C@H](C)CO)C[C@H](C)[C@H](CN(C)Cc2ccc(C(=O)Nc4ccccc4N)cc2)O3)cc1` gave HIV Env fusion -9.2[16.7 µM] and Yeast UUG start 12.8.
`C[C@@H]1CN([C@@H](C)CO)C(=O)c2cccc(NC(=O)Nc3ccc(C(F)(F)F)cc3)c2O[C@@H]1CN(C)C(=O)Nc1ccc2c(c1)OCO2` gave HIV Env fusion -15.7[16.7 µM] and Yeast UUG start 7.3.
For Cc1ccc(S(=O)(=O)Nc2ccc3c(c2)C(=O)N([C@@H](C)CO)C[C@@H](C)[C@@H](CN(C)C(=O)Nc2ccc(F)cc2)OCCCC[C@H](C)O3)cc1 the results were HIV Env fusion -18.4[16.7 µM] and Yeast UUG start 0.3.
For CO[C@H]1CN(C)C(=O)c2cc(NC(=O)C3CCCC3)ccc2OC[C@@H](C)N(C(=O)CC2CC2)C[C@@H]1C the results were HIV Env fusion -11.3[16.7 µM] and Yeast UUG start 12.8.
Screening CO[C@@H]1CN(C)C(=O)c2ccc(NC(=O)Nc3cccc(F)c3)cc2OC[C@@H](C)N(C(=O)Nc2cccc(F)c2)C[C@H]1C returned HIV Env fusion 74.0*[16.7 µM] and Yeast UUG start 0.9.
`C[C@H]1CN([C@@H](C)CO)C(=O)c2cc(NC(=O)Cn3cnnn3)ccc2O[C@H]1CN(C)S(=O)(=O)c1ccc(F)cc1` gave HIV Env fusion 3.9[16.7 µM] and Yeast UUG start -3.2.
For CNC[C@@H]1Oc2ccc(NC(=O)CCC(F)(F)F)cc2CC(=O)N([C@H](C)CO)C[C@H]1C the results were HIV Env fusion 0.3[16.7 µM] and Yeast UUG start 9.6.
COc1ccc(S(=O)(=O)N(C)C[C@@H]2OCCCC[C@H](C)Oc3ccc(NC(=O)Nc4c(C)noc4C)cc3C(=O)N([C@H](C)CO)C[C@H]2C)cc1 was read as HIV Env fusion 15.2[16.7 µM] and Yeast UUG start 12.1.
Screening C[C@@H]1CN([C@H](C)CO)C(=O)c2cccc(NC(=O)c3cnccn3)c2O[C@@H]1CN(C)Cc1ccc2c(c1)OCO2 returned HIV Env fusion 12.5[16.7 µM] and Yeast UUG start -2.3.
Cc1noc(C)c1NC(=O)Nc1ccc2c(c1)C(=O)N([C@@H](C)CO)C[C@@H](C)[C@H](CN(C)C)OCCCC[C@@H](C)O2 was read as HIV Env fusion -1.7[16.7 µM] and Yeast UUG start 12.4.
For O=C(C[C@@H]1C[C@H]2c3cc(NC(=O)NC4CCCC4)ccc3O[C@H]2[C@@H](CO)O1)NCc1cc(F)ccc1F the results were HIV Env fusion 23.2[16.7 µM] and Yeast UUG start -19.4.
C[C@@H]1CN([C@H](C)CO)C(=O)c2cc(NS(=O)(=O)c3cn(C)cn3)ccc2O[C@@H]1CN(C)S(=O)(=O)c1ccccc1 was read as HIV Env fusion -17.0[16.7 µM] and Yeast UUG start -7.5.
Screening C[C@@H]1CN([C@H](C)CO)C(=O)c2cc(NC(=O)C3CCCCC3)ccc2O[C@@H](C)CCCCO[C@@H]1CN(C)S(=O)(=O)c1ccc(F)cc1 returned HIV Env fusion -3.3[16.7 µM] and Yeast UUG start -7.5.
For C[C@H]1CN([C@@H](C)CO)C(=O)c2cccc(NC(=O)C3CCOCC3)c2O[C@@H]1CN(C)S(C)(=O)=O the results were HIV Env fusion 6.2[16.7 µM] and Yeast UUG start -4.4.
For COc1ccc(S(=O)(=O)N(C)C[C@@H]2Oc3ncc(-c4ccncc4)cc3C(=O)N([C@@H](C)CO)C[C@H]2C)cc1 the results were HIV Env fusion 3.6[16.7 µM] and Yeast UUG start 11.3.
C[C@@H]1CCCCO[C@@H](CN(C)S(=O)(=O)c2ccc(Cl)cc2)[C@@H](C)CN([C@H](C)CO)C(=O)c2cc(NC(=O)CCCCCC(=O)Nc3ccccc3N)ccc2O1 was read as HIV Env fusion 18.8[16.7 µM] and Yeast UUG start -14.9.
`C/C=C/c1ccc2c(c1)O[C@@H](CN(C)C(C)=O)[C@H](C)CN([C@H](C)CO)S2(=O)=O` gave HIV Env fusion -3.3[16.7 µM] and Yeast UUG start 17.0.
`C[C@H]1CN([C@@H](C)CO)C(=O)c2cc(C#CC3(O)CCCC3)cnc2O[C@H]1CN(C)C(=O)Nc1ccc2c(c1)OCO2` gave HIV Env fusion 8.5[16.7 µM] and Yeast UUG start 0.5.
For CN1C(=O)c2cc(NC(=O)C3CCOCC3)ccc2OC[C@H]2O[C@H](CC(=O)NCC3CC3)CC[C@H]21 the results were HIV Env fusion -12.2[16.7 µM] and Yeast UUG start -2.8.
Screening Cc1ccc(S(=O)(=O)Nc2ccc3c(c2)C(=O)N([C@@H](C)CO)C[C@@H](C)[C@@H](CN(C)C(=O)c2ccncc2)OCCCC[C@@H](C)O3)cc1 returned HIV Env fusion -2.2[16.7 µM] and Yeast UUG start 5.8.
Screening C[C@@H]1CCCCO[C@H](CN(C)S(=O)(=O)c2ccccc2)[C@@H](C)CN([C@@H](C)CO)C(=O)c2cc(NC(=O)Nc3ccc4c(c3)OCO4)ccc2O1 returned HIV Env fusion -4.6[16.7 µM] and Yeast UUG start -12.2.

Fetched by structure from the list above:
Cc1noc(C)c1NC(=O)Nc1ccc2c(c1)C(=O)N([C@@H](C)CO)C[C@@H](C)[C@H](CN(C)C)OCCCC[C@@H](C)O2 was read as HIV Env fusion -1.7[16.7 µM] and Yeast UUG start 12.4.
Screening O=C(C[C@@H]1CC[C@H]2[C@@H](COC[C@H](O)CN2C(=O)Nc2ccccc2)O1)NCc1ccncn1 returned HIV Env fusion -9.0[16.7 µM] and Yeast UUG start 5.0.
`Cc1ccc(S(=O)(=O)Nc2ccc3c(c2)C(=O)N([C@H](C)CO)C[C@H](C)[C@H](CN(C)Cc2ccc(C(=O)Nc4ccccc4N)cc2)O3)cc1` gave HIV Env fusion -9.2[16.7 µM] and Yeast UUG start 12.8.
`C/C=C/c1ccc2c(c1)O[C@@H](CN(C)C(C)=O)[C@H](C)CN([C@H](C)CO)S2(=O)=O` gave HIV Env fusion -3.3[16.7 µM] and Yeast UUG start 17.0.

(more compounds)
CCCNC(=O)N[C@H]1CC[C@@H](CCn2cc(C3CCCCC3)nn2)O[C@H]1CO was read as HIV Env fusion -9.3[16.7 µM] and Yeast UUG start -14.8.
C[C@@H]1CN([C@@H](C)CO)C(=O)c2cc(NC(=O)CCCN(C)C)ccc2O[C@@H](C)CCCCO[C@H]1CN(C)C(=O)Cc1ccccc1 was read as HIV Env fusion 12.2[16.7 µM] and Yeast UUG start -2.2.
Screening Cc1ccc(-c2ccc3c(c2)O[C@@H](CN(C)Cc2ccncc2)[C@H](C)CN([C@@H](C)CO)S3(=O)=O)cc1 returned HIV Env fusion 28.8[16.7 µM] and Yeast UUG start -1.1.
Screening C[C@@H]1CN([C@@H](C)CO)C(=O)c2cccc(NS(=O)(=O)c3cccs3)c2O[C@H]1CN(C)C(=O)Nc1ccc(F)cc1 returned HIV Env fusion -5.9[16.7 µM] and Yeast UUG start 14.6.
COc1ccc(NC(=O)Nc2ccc3c(c2)C(=O)N([C@@H](C)CO)C[C@@H](C)[C@@H](CN(C)C(=O)NC2CCCCC2)OCCCC[C@H](C)O3)cc1 was read as HIV Env fusion -8.7[16.7 µM] and Yeast UUG start 14.3.
COc1cccc(S(=O)(=O)Nc2ccc3c(c2)C(=O)N(C)[C@H]2CC[C@H](CC(=O)O)O[C@@H]2CO3)c1 was read as HIV Env fusion -7.9[16.7 µM] and Yeast UUG start 5.8.
For CCC(=O)N[C@H]1CC[C@@H](CCNC(=O)Nc2ccc(F)cc2)O[C@@H]1CO the results were HIV Env fusion -9.7[16.7 µM] and Yeast UUG start -4.1.
`C[C@@H]1CN([C@@H](C)CO)C(=O)c2cc(NS(=O)(=O)c3cn(C)cn3)ccc2O[C@@H](C)CCCCO[C@@H]1CN(C)Cc1ccc(C(F)(F)F)cc1` gave HIV Env fusion -8.8[16.7 µM] and Yeast UUG start 16.7.
For C[C@@H]1CN([C@@H](C)CO)C(=O)c2cc(NS(=O)(=O)c3ccccc3)ccc2O[C@@H]1CN(C)S(=O)(=O)c1cccs1 the results were HIV Env fusion 3.7[16.7 µM] and Yeast UUG start -3.3.
Screening Cc1noc(C)c1NC(=O)Nc1ccc2c(c1)CC(=O)N([C@H](C)CO)C[C@H](C)[C@@H](CN(C)Cc1ccc(C(F)(F)F)cc1)O2 returned HIV Env fusion 6.1[16.7 µM] and Yeast UUG start 17.0.
`C[C@@H]1CN([C@H](C)CO)C(=O)c2cccc(NC(=O)Nc3ccc4c(c3)OCO4)c2O[C@H]1CN(C)C(=O)Nc1ccc(C(F)(F)F)cc1` gave HIV Env fusion -2.4[16.7 µM] and Yeast UUG start 12.0.
`CCCNC(=O)C[C@@H]1CC[C@@H]2[C@H](COc3ccc(NC(=O)c4cccc(C(F)(F)F)c4)cc3C(=O)N2C)O1` gave HIV Env fusion 4.1[16.7 µM] and Yeast UUG start 2.2.
`C[C@@H]1CN([C@H](C)CO)C(=O)c2cc(/C=C/c3ccccc3)cnc2O[C@@H]1CN(C)C(=O)c1ccc(F)cc1` gave HIV Env fusion -1.8[16.7 µM] and Yeast UUG start 19.7.
For O=C(Nc1cccc(Cl)c1)N[C@H]1CC[C@H](CCNC(=O)C2CCCCC2)O[C@H]1CO the results were HIV Env fusion 1.3[16.7 µM] and Yeast UUG start -10.2.
For CC(C)NC(=O)Nc1ccc2c(c1)C(=O)N([C@@H](C)CO)C[C@H](C)[C@H](CN(C)C(=O)C1CCCCC1)OCCCC[C@H](C)O2 the results were HIV Env fusion -47.6[16.7 µM] and Yeast UUG start 9.2.
C[C@@H]1CCCCO[C@@H](CN(C)C(=O)C2CCCCC2)[C@@H](C)CN([C@H](C)CO)C(=O)c2cc(NC(=O)CCCN(C)C)ccc2O1 was read as HIV Env fusion -15.9[16.7 µM] and Yeast UUG start 8.0.
`CN1CCN(C(=O)C[C@@H]2CC[C@@H](NS(=O)(=O)c3cccc(F)c3)[C@H](CO)O2)CC1` gave HIV Env fusion -21.6[16.7 µM] and Yeast UUG start -0.8.
For Cc1noc(C)c1NC(=O)N(C)C[C@@H]1Oc2ccc(NC(=O)Nc3cccc4ccccc34)cc2CC(=O)N([C@@H](C)CO)C[C@H]1C the results were HIV Env fusion -93.9[16.7 µM] and Yeast UUG start 6.7.
Screening O=C(C[C@H]1C=C[C@H](NC(=O)Nc2cc(F)ccc2F)[C@H](CO)O1)Nc1ccc(-c2ccccc2)cc1 returned HIV Env fusion 23.3[16.7 µM] and Yeast UUG start -7.1.
`C[C@H](CO)N1C[C@H](C)[C@@H](CN(C)Cc2ccc(Oc3ccccc3)cc2)Oc2ccc(NC(=O)CCCN(C)C)cc2CC1=O` gave HIV Env fusion -10.3[16.7 µM] and Yeast UUG start 30.7.
